# Screening data (PubChem BioAssay)
# Rango release inh: inhibition of RanGTP-driven Rango-importin beta dissociation; Potency, µM (titrated, usually from 46.1 µM), for the others: top-dose activity change, negative = inhibition; AID 540253; hit rate 0.071% among 340,000; O95149+P62826; Biochemical FRET Rango-importin beta, RanGTP-induced dissociation; active means falling FRET ratio curve, often poorly fitted, with flat reads before Ran was added; inconclusive means other falling curves, or compound fluorescence or quenching; inactive means flat or rising ratio curve;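 further: potency means the concentration at half of the fitted maximal effect; % of control where 0% means no effect; nearly all actives have a fitted effect of over 45% in size; -100% = wells without RanGTP and RCC1; the record marks most hits as doubtful in a second field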
#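 Recombinant Rango FRET biosensor (EYFP–snurportin 1 IBB–cerulean CFP10) at 0.1 uM premixed with 0.25 uM importin beta in PBS, 1 mM DTT, 0.02% Tween-20, 0.1% BSA. Compound added 5 min; RanGTP-RCC1 (0.6 uM Ran, 2 mM GTP, 0.2 uM RCC1) then triggers release, read at 45 min.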
# GLA inh pH 4.5: inhibitors of human alpha-galactosidase A at pH 4.5. P06280. 230,000 tested, under 10 active. activity change, negative = inhibition, % at 105 µM. purified enzyme, 4-MU-alpha-Gal fluorescence, pH 4.5; inconclusive = small, poorly fitted or top-dose-only inhibition, or a rising curve; inactive = flat fitted curve, though single readings scatter; no compound was filed as active;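 further: 0% = full activity with enzyme and -100% = basal without enzyme; dose as in the result columns while the protocol names 77 µM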
# miR-21 FLuc: raises the signal of a miR-21 reporter; HeLa miR-21 FLuc reporter, luciferase, 48 h; Potency, µM (series often up to 38.3 µM), inactives show at the top dose reporter change, positive = more light; 340,000 tested, under 10 active; active = well fitted rising curve with a large enough effect; inconclusive = small, poorly fitted or top-dose-only effect; inactive = no such curve, though single readings can be large or run the other way;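 further: % of control where 0% means no effect; miR-21 action dims this reporter so a rising signal means less miR-21 action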
#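 HeLa cells endogenously expressing miR-21, stably carrying CMV-driven firefly luciferase with a downstream miR-21 binding site, 2000 cells/well. Titrations up to approximately 40 uM, 48 hours; luciferase luminescence read.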
# Rango complex inh: inhibitors of Rango-importin beta complex formation | Q14974 | Rango CFP/YFP FRET sensor + importin beta, 45 min | Potency, µM (highest dose often 92.2 µM), for inactives: at the highest dose inhibition of complex formation | hit rate 0.031% among 340,000; active = rising FRET ratio curve, often small or poorly fitted; inconclusive = mostly compound fluorescence or quenching in the first reads; inactive = flat curves in all reads;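 further: potency means the concentration at half of the fitted maximal effect; 0% = DMSO wells and 100% = buffer wells lacking importin beta; nearly all actives have a fitted effect of over 15% in size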
# Target sequence (Q14974 whole entry, looked up): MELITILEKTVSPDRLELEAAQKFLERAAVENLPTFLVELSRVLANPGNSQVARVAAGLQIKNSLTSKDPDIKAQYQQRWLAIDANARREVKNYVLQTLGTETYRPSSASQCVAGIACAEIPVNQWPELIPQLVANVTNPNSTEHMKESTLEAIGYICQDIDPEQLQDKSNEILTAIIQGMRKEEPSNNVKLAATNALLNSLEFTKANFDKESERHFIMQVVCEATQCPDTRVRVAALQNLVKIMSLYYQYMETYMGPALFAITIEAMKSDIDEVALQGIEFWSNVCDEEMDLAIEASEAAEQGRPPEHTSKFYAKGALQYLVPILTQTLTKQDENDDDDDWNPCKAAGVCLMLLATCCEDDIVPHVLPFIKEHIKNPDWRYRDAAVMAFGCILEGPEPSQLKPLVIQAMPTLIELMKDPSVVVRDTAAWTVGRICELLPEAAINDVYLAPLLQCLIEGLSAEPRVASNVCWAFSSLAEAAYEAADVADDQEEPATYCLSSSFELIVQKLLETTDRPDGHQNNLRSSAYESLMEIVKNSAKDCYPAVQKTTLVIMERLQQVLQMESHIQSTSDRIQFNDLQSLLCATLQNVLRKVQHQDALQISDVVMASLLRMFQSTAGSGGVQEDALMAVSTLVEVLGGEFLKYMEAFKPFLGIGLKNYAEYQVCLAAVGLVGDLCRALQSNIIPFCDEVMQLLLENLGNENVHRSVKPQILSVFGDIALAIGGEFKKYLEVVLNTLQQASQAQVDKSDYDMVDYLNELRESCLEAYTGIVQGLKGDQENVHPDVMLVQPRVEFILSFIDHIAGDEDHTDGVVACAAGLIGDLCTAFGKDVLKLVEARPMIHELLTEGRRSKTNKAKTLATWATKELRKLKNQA
#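 Inhibition scored from the CFP 486 nm/YFP 530 nm FRET ratio 45 min after adding 0.125 microM importin beta to 50 nM Rango biosensor preincubated 5 min with compound (room temperature, PBS with DTT, Tween-20, BSA). No-importin wells as positive control.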
# Active calls of the source: *; ? = inconclusive; / = not tested or not shown. These rows are one share of the data; rates above refer to the full screens.
# Each structure is followed by: Rango complex inh	miR-21 FLuc	GLA inh pH 4.5	Rango release inh
1) Cc1cccc(NC(=O)CSCC(=O)Nc2ccccc2N2CCCC2)c1
    -1.9%	-4%	/	-4%
2) Fc1cccc(Cc2noc(CN3CCCN(C4Cc5ccccc5C4)CC3)n2)c1
    -3.1%	1%	4	2%
3) CCn1c(N)cc(=O)[nH]c1=S
    -0.8%	/	/	-23%
4) CCOc1ccc(S(=O)(=O)NC2CCCC2)cc1
    0.3%	-1%	/	-9%
5) COCCn1c(SCCOc2ccccc2)nc2ccccc2c1=O
    -2.2%	-6%	-6	-4%
6) COc1ccccc1NC(=O)c1sc2ncn(Cc3ccccc3C)c(=O)c2c1C
    -0.3%	1%	12	-2%
7) Cc1cccnc1NC(=O)Nc1ccc(Cl)cc1
    1.1%	-43%	/	2%
8) CN(C)S(=O)(=O)c1ccc(C(=O)Nc2nnc(-c3ccc4c(c3)CCCC4)o2)cc1
    1.2%	-5%	-2	8%
9) O=C(Nc1ccc(Br)cc1)C1CCCN(S(=O)(=O)c2cccnc2)C1 (stereo unspecified)
    0.0%	15%	-9	-13%
10) COc1ccc(CNC(=O)C[C@H]2C[C@H](C(=O)N3CCCCC3)[C@@]3(C)c4[nH]c5cc(CCC(=O)N(C)C)ccc5c4CCN3C2=O)cc1OC
    5.6%	/	/	-2%
11) CC(=O)c1c(C)[nH]c(C(=O)CSc2nnc(-c3ccccc3)o2)c1C
    0.0%	-13%	-1	-18%
12) CCc1cc(C(=O)c2ccccc2)c(N)s1
    -1.9%	-5%	/	4%
13) O=S(=O)(c1ccc(SCCOc2ccccc2Cl)nc1)N1CCCC1
    -1.1%	/	/	-12%
14) COC(=O)c1ccccc1NC(=O)c1cccs1
    4.1%	-3%	4	0%
15) CC1=C(C(=O)N2CCOCC2)C(c2cccc3ccccc23)NC(=S)N1 (stereo unspecified)
    -3.0%	-5%	11	13%

# Further entries:
# Each structure is followed by: Rango complex inh	miR-21 FLuc	GLA inh pH 4.5	Rango release inh
16) O=C(O)CCC(=O)N1N=C(c2cccs2)CC1c1cn(-c2ccccc2)nc1-c1ccccc1 (stereo unspecified)
    -1.8%	-10%	-4	?
17) COc1ccc(NC(=O)CCNC(=O)c2ccccc2Cl)cc1OC
    -2.7%	-12%	/	3%
18) COc1cccc(/C(O)=C2/C(=O)C(=O)N(CCN3CCOCC3)C2c2cccs2)c1 (stereo unspecified)
    -1.4%	-15%	-6	0%
19) CC1(C)N=C(c2ccc(Cl)cc2)C(=O)N1
    -0.2%	-10%	5	13%
20) CCCNC(=O)c1ccc(Cn2c(=S)[nH]c3c([nH]c4ccc(OC)cc43)c2=O)cc1
    0.4%	-28%	4	-7%
21) Cc1nn(CC(=O)NCc2cccnc2)c(=O)c2ccccc12
    1.1%	-1%	0	?
22) CN(C)CCCNC(=O)c1cc(C(=O)c2ccccc2)c[nH]1
    4.7%	0%	/	11%
23) COCCN(Cc1ccccc1)C(=O)c1cc(S(=O)(=O)N2CCCCCC2)ccc1OC
    0.4%	/	/	-14%
24) COc1ccc(C(=O)NC(C)c2ccc(-n3ccnc3)cc2)c(OC)c1 (stereo unspecified)
    -1.4%	/	/	-2%
25) COc1ccc(N[C@@H]2CCN3C(=O)c4ccccc4[C@@H]3C[C@H]2O)cc1
    4.7%	/	/	1%
26) CCSc1nc(N)nc(-c2cccs2)c1C#N
    -0.1%	-61%	-5	-7%
27) COc1ccc(NC(=O)c2cc(-c3ccc(C)c(C)c3O)n[nH]2)cc1Cl
    0.1%	3%	/	-23%
28) CCOC(=O)Cn1nc(NC(=O)c2ccc(C(=O)OC)cc2)cc1C
    -1.1%	6%	/	0%
29) CC(C)OC(=O)NCCOC(=O)Nc1ccc(Cl)cc1
    -1.8%	-3%	-14	-1%
30) CC(C)n1c(NCc2c[nH]c3ccccc23)nc2ccccc21
    1.6%	-13%	-2	2%

# Remaining list, next part.
# Each structure is followed by: Rango complex inh	miR-21 FLuc	GLA inh pH 4.5	Rango release inh
31) CCOc1ccc(NC(=O)CN(C)S(=O)(=O)c2ccc(-c3ccc(=O)[nH]n3)s2)cc1
    0.8%	-5%	/	-4%
32) COc1cc(S(=O)(=O)N2CCN(c3ccccc3F)CC2)ccc1Cl
    ?	-11%	-9	24%
33) CCOC(=O)[C@@H]1[C@H]2COc3ccccc3[C@@H]2N2C(=O)N(c3ccccc3)C(=O)[C@@]12C
    3.1%	1%	/	20%
34) COc1ccc(-n2c(SCC(=O)N3CCC(C(=O)O)CC3)nc3ccccc3c2=O)cc1OC
    4.1%	1%	/	1%
35) CNC(=O)C(=O)Nc1nc(C23CC4CC(CC(C4)C2)C3)cs1
    3.9%	-23%	-1	-5%
36) CC1S/C(=C(\C#N)C(=O)NCc2ccco2)N(c2ccc(F)cc2)C1=O (stereo unspecified)
    -2.9%	-3%	-1	-8%
37) COc1ccccc1NCC(=O)NNCC(=O)Nc1ccc(F)c(Cl)c1
    -3.2%	11%	0	27%
38) CCOC(=O)N1CCN(S(=O)(=O)c2ccc(C(=O)Nc3sc4c(c3C#N)CC(C)(C)NC4(C)C)cc2)CC1
    3.8%	-3%	/	-14%
39) Nc1nnc(SCC(=O)NC2CCCCC2)s1
    2.2%	-1%	-1	-9%
40) COc1ccc(C2C(C#N)=C(N)OC3=C2C(=O)CCC3)cc1Cn1nc(C)c([N+](=O)[O-])c1C (stereo unspecified)
    0.4%	0%	2	7%
41) O=C(NC12CC3CC(CC(C3)C1)C2)c1c(Cl)cccc1Cl
    -1.0%	2%	/	17%
42) Cc1cc(NC(=O)Cc2c(F)cccc2Cl)no1
    -0.8%	1%	4	-1%
43) COc1cc(C(=O)NCC(=O)N/N=C(\C)Cc2ccccc2)cc(OC)c1OC
    0.2%	0%	/	12%
44) COc1cc(/C(C)=N\NC(N)=S)cc(OC)c1OC
    -2.7%	7%	9	10%
45) CCN(CC(=O)Nc1ccccc1C(F)(F)F)C(=O)c1cc2c(s1)CCCCC2
    -2.3%	/	/	-7%

# Given as labelled records: 3 of the compounds above.
(35) CNC(=O)C(=O)Nc1nc(C23CC4CC(CC(C4)C2)C3)cs1
  Rango complex inh: 3.9%; miR-21 FLuc: -23%; GLA inh pH 4.5: -1; Rango release inh: -5%

(36) CC1S/C(=C(\C#N)C(=O)NCc2ccco2)N(c2ccc(F)cc2)C1=O (stereo unspecified)
  Rango complex inh: -2.9%; miR-21 FLuc: -3%; GLA inh pH 4.5: -1; Rango release inh: -8%

(37) COc1ccccc1NCC(=O)NNCC(=O)Nc1ccc(F)c(Cl)c1
  Rango complex inh: -3.2%; miR-21 FLuc: 11%; GLA inh pH 4.5: 0; Rango release inh: 27%

# Further results
# Each structure is followed by: Rango complex inh	miR-21 FLuc	GLA inh pH 4.5	Rango release inh
46) COCCNC(=O)c1cccc(NS(=O)(=O)c2cccc3cccnc23)c1
    3.9%	-12%	-2	19%
47) O=C(CN1CCN(c2ccccn2)CC1)Nc1ccc(Oc2ccccc2)cc1
    0.0%	7%	-3	-6%
48) O=C(NCCc1ccc(Cl)cc1Cl)c1cncc(Br)c1
    2.1%	-2%	/	6%
49) COc1ccccc1CNc1cc(C)ccc1C
    0.0%	-2%	-4	1%
50) O=C(O)CSc1nnc(C2COc3ccccc3O2)n1-c1ccccc1 (stereo unspecified)
    2.6%	-8%	-1	-13%
51) Cc1cccc(OCCNc2cc(N3CCN(CCO)CC3)ccc2[N+](=O)[O-])c1
    -1.6%	2%	-6	-8%
52) CC[N+](CC)(CC)CC(=O)Nc1ccc(SC(F)F)cc1
    -1.5%	-2%	-29	-4%
53) NC(=O)C(c1ccccc1)C1CCCCC1 (stereo unspecified)
    0.2%	-4%	-2	9%
54) Cc1cc(C(=O)OCC(=O)NCc2ccc(Cl)cc2)c(C)o1
    0.5%	20%	-16	-2%
55) O=S(=O)(NCc1cc(-c2ccccc2)no1)c1ccccc1Cl
    -1.4%	-13%	11	16%
56) O=C(CSc1nc(-c2ccco2)cc(C(F)(F)F)n1)NC1CCCCCCC1
    -3.3%	/	/	2%
57) COc1ccc(CN2CCNC(=O)C2CC(=O)N(C)CC2CCOCC2)c(F)c1 (stereo unspecified)
    -1.1%	1%	/	1%
58) Cc1c(Cl)cccc1NC(=O)CNC(=O)Cc1c[nH]c2ccccc12
    0.2%	/	/	28%
59) COc1ccc(-n2nc3c(N4CCC(C(=O)N5CCCCCC5)CC4)nnc(C)c3c2C)cc1
    2.1%	-1%	/	19%
60) Cn1nc(C(=O)Nc2cccc(C(F)(F)F)c2)c2ccccc2c1=O
    0.9%	-2%	0	-16%

# 13 entries from above, arranged by number of heavy atoms, high to low.
# Each structure is followed by: Rango complex inh	miR-21 FLuc	GLA inh pH 4.5	Rango release inh
59) COc1ccc(-n2nc3c(N4CCC(C(=O)N5CCCCCC5)CC4)nnc(C)c3c2C)cc1
    2.1%	-1%	/	19%
43) COc1cc(C(=O)NCC(=O)N/N=C(\C)Cc2ccccc2)cc(OC)c1OC
    0.2%	0%	/	12%
56) O=C(CSc1nc(-c2ccco2)cc(C(F)(F)F)n1)NC1CCCCCCC1
    -3.3%	/	/	2%
46) COCCNC(=O)c1cccc(NS(=O)(=O)c2cccc3cccnc23)c1
    3.9%	-12%	-2	19%
50) O=C(O)CSc1nnc(C2COc3ccccc3O2)n1-c1ccccc1 (stereo unspecified)
    2.6%	-8%	-1	-13%
58) Cc1c(Cl)cccc1NC(=O)CNC(=O)Cc1c[nH]c2ccccc12
    0.2%	/	/	28%
55) O=S(=O)(NCc1cc(-c2ccccc2)no1)c1ccccc1Cl
    -1.4%	-13%	11	16%
54) Cc1cc(C(=O)OCC(=O)NCc2ccc(Cl)cc2)c(C)o1
    0.5%	20%	-16	-2%
41) O=C(NC12CC3CC(CC(C3)C1)C2)c1c(Cl)cccc1Cl
    -1.0%	2%	/	17%
48) O=C(NCCc1ccc(Cl)cc1Cl)c1cncc(Br)c1
    2.1%	-2%	/	6%
44) COc1cc(/C(C)=N\NC(N)=S)cc(OC)c1OC
    -2.7%	7%	9	10%
49) COc1ccccc1CNc1cc(C)ccc1C
    0.0%	-2%	-4	1%
53) NC(=O)C(c1ccccc1)C1CCCCC1 (stereo unspecified)
    0.2%	-4%	-2	9%

# Other records:
# Each structure is followed by: Rango complex inh	miR-21 FLuc	GLA inh pH 4.5	Rango release inh
61) COc1ccc(C2c3ccc(O)cc3Oc3ncn(CCCO)c(=N)c32)cc1OC (stereo unspecified)
    ?	-25%	0	?
62) Cc1ccc(C(=O)NCC(=O)NCC(=O)OCc2ccc(Cl)cc2)cc1
    -3.5%	-2%	8	9%
63) O=C(O)CCCCCN1C(=O)C(O)=C(C(=O)/C=C/c2ccccc2)C1c1ccccc1[N+](=O)[O-] (stereo unspecified)
    -5.1%	-16%	0	-21%
64) CCn1c(=O)cc(OCC(=O)O)c2ccccc21
    -0.4%	-2%	4	2%
65) CCN=C1SC(CC(=O)NC(C)c2ccccc2)C(=O)N1CC (stereo unspecified)
    2.5%	-4%	14	2%
66) CCc1ccccc1NC(=S)N(CCN1CCOCC1)C1CCN(C(C)=O)CC1
    -0.3%	-3%	1	-3%
67) CC(Cc1ccccc1)NC(=O)CCCN1C(=O)c2ccccc2C1=O (stereo unspecified)
    -0.5%	1%	/	1%
68) CC(=O)Nc1cccc(NC(=O)c2ccccc2OCc2c(C)noc2C)c1
    4.6%	/	/	-1%
69) COc1cc(C(=O)N2CCN(S(=O)(=O)c3cc(C)ccc3C)CC2)ccc1OCC(=O)N1CCOCC1
    -5.1%	/	/	34%
70) CSC(=NNC(=O)c1ccccc1O)SC
    1.1%	-11%	9	5%
71) Cc1c(Cc2ccccc2)c(=O)oc2c(C)c(OCC(=O)NCC3CCC(C(=O)O)CC3)ccc12 (stereo unspecified)
    0.0%	-3%	/	-5%
72) CC(C)(C)C(=O)COC(=O)CNC(=O)c1ccc(Oc2ccccc2)cc1
    4.8%	-1%	-1	-5%
73) COc1ccc(NC(=O)CSc2nnnn2C2CC3C=CC2C3)cc1 (stereo unspecified)
    -0.2%	-16%	/	0%
